ClpP mod: qHTS Assay for Activators of ClpP; ATP-dependent Clp protease proteolytic subunit (Bacillus subtilis (strain 168)), P80244; purified B. subtilis ClpP, FRET peptide cleavage, 20 min; Potency, µM (top dose mostly 57.5 µM), without a hit: top-dose activity change, negative = active; 1.9% of 340,000 active; AID 651965, 2013; active = well fitted falling curve with a large enough effect; inconclusive = small, poorly fitted or top-dose-only effect; inactive = no such curve, though single readings can be large or run the other way; note: potency is the fitted concentration of half-maximal effect; the source files actives as falling curves though it sought activators and does not explain the sign; nearly all actives have a fitted effect of over 65% in size; many hits overshoot -100%
Target sequence (P80244 whole entry, looked up): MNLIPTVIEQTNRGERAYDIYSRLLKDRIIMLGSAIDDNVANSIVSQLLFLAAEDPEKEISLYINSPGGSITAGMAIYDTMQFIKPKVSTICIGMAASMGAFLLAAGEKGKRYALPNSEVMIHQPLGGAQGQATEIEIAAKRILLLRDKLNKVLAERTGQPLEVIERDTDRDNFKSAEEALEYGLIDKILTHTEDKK
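Buffer: 100 mM Tris/HCl pH8, 100 mM KCl, 0.05% low protease BSA, 2.5% glycerol, 0.01% Tween-20. ClpP 10 microg/mL final; 20 min RT; delta FRET normalized to ADEP and DMSO controls.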
Menin-MLL FL inh: inhibitors of human menin-MLL interaction, wild-type MLL peptide; Fluorescence polarization, fluorescein-MLL peptide displacement from menin; FP activity change, % at 61.4 µM; 290,000 tested, under 10 active; inconclusive = falling polarisation curve, or a change in total fluorescence; inactive = total fluorescence flat and polarisation flat or rising; no compound was filed as active; the % refers to the polarisation; negative = inhibition;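 note: % of control where 0% means no effect; inhibitors lower the polarisation; unlabelled MLL peptide was the positive control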
TRPML1 inh: blocks the human TRPML1 channel | Q9GZU1 | 0.02% of 390,000 active | TRPML1-inducible cells, Ca2+ dye fluorescence, FDSS; active compounds read low; inhibition of EC80 agonist-evoked calcium signal | AID 624415 | activity change, negative = inhibition, % (concentration not given with the values); in the data active means activity change below about -50%; inconclusive means about -30% to -50%; inactive means above about -30%;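 note: stimulus is agonist 54-4 at its EC80 concentration; % is set by controls: 0 for no effect and ±100 for the full control effect; the text of the record puts the active cut at -80%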
Target sequence (Q9GZU1 whole entry, looked up): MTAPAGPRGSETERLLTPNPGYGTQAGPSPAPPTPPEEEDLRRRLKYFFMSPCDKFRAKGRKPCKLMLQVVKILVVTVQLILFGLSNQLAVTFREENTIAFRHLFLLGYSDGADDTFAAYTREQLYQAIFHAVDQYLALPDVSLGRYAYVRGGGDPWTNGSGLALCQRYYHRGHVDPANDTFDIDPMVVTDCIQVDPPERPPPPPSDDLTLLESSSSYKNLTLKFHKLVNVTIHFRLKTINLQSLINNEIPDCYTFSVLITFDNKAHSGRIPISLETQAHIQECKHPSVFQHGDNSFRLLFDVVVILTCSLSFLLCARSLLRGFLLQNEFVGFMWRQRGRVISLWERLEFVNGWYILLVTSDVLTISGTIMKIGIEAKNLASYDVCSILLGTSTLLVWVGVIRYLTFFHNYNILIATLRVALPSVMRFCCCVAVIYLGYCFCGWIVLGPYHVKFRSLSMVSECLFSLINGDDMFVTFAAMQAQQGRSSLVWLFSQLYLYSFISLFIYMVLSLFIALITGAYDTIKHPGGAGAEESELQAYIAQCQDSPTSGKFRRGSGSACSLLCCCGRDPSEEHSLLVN
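Calcium fluorescence in TRPML1-DL cells induced overnight with Tet: a 110 s read after compound pin addition, then a 110 s antagonist read after challenge with 54-4 at 4 uM final (EC80).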
gsp antagonist: gsp mutant antagonism; gsp-mutant cells, cAMP HTRF, 30 min; control for the full effect not named in the record; Potency, µM (highest dose often 76.9 µM), for the others: at the top dose activity change, negative = inhibition, most hits filed as inhibitors; 0.4% of 340,000 active; active = falling curve of any shape with a large fitted effect; inconclusive = falling curve, mostly with a smaller effect; inactive = flat or rising curve; cell line not stated here;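 note: intracellular cAMP measured with PDE inhibitor Ro 20-1724 present during compound exposure; potency is the fitted concentration of half-maximal effect; % is set by controls: 0 for no effect and ±100 for the full control effect; nearly all actives have a fitted effect of over 65% in size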
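Measurement of cellular cAMP by homogeneous time-resolved fluorescence following a 30 min compound exposure at 37C. The PDE inhibitor […] was present throughout; the assay buffer was DPBS with 0.05% BSA and 0.005% Tween 20.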
TRPML1 agonist: agonists of human TRPML1 channel | activation, % (concentration not given with the values) | 0.12% of 410,000 active | Q9GZU1 | TRPML1-expressing cells, Ca2+ dye fluorescence, FDSS; host cell line not named in the record; reference of the full effect not given here; in the data active = activation above about 50%; inconclusive = about 30% to 50%; inactive = below about 30%; note: 0% is about no effect; the text of the record puts the active cut at 80%
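In this qHTS format, compounds were pin-transferred onto Ca8-dye-loaded TRPML1-DL cells induced with Tet overnight, and intracellular Ca2+ fluorescence was recorded kinetically for 110 s after a 10 s baseline. A subsequent 4uM final 54-4 (EC80) addition followed by a second 110 s read served as the antagonist phase.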
gsp agonist: agonists of gsp mutant (McCune-Albright syndrome). gsp mutant cells, cAMP HTRF, 30 min; control for the full effect not named in the record. Potency, µM (series often up to 76.9 µM), for the others: at the highest dose activation (cAMP increase), most hits filed as activators. 0.13% of 340,000 active; active = well fitted activation curve with a large enough effect; inconclusive = small, poorly fitted or top-dose-only effect, or another doubt; inactive = no such curve, though single readings can be large or run the other way; cell line not stated here;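 note: phosphodiesterase inhibitor Ro 20-1724 added with compounds to block cAMP breakdown; potency is the fitted concentration of half-maximal effect; nearly all actives have a fitted effect of over 60% in size; about a fifth of the inactives were tested at one dose only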
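Cells stably selected in G418 were plated at 2000/well, grown 16-24 hr, then given compounds in DMSO with the PDE inhibitor […] (300 uM solution added) for 30 min at 37C; cAMP was read by HTRF.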
The depositor's hits bear a star; ? = inconclusive; . = no result given; [ ] = dose if it differs, or a comment.

Second line of a record – ClpP mod, Menin-MLL FL inh, TRPML1 inh, gsp antagonist, TRPML1 agonist, gsp agonist
CCOC(=O)c1oc2ccccc2c1NC(=O)Cc1cccs1
 : ?, -0.8, 7, 9%, 1.5, -3%
Cc1c(C(=O)N(CCc2ccccc2)Cc2ccccc2)cccc1[N+](=O)[O-]
 : -4.5%, -2.1, 56, -22%, 5.6, -8%
CCOc1ccc(-c2nn3c(-c4ccc(F)cc4)nnc3s2)cc1
 : -5.4%, ., -5, 2%, 0.4, 19%
Cc1ccc(C(=O)Nc2cccc(C(O)c3ccccc3)c2)cc1 (configuration not stated)
 : 0.3%, ., -8, -3%, -0.6, -17%[15.4 µM]
COc1ccc(N(C(=O)CNC(=O)c2ccco2)C(C(=O)NC2CCCCC2)c2cccnc2)cc1 (configuration not stated)
 : ., ., 12, -19%, 3.8, 12%
CC1/C(=N/O)C(CN(C)C)C2CC1C2(C)C (configuration not stated)
 : -14%, 5.4, -6, -8%, -0.5, -25%
CCOC(=O)Cc1csc(NC(=O)Nc2cccc(Cl)c2)n1
 : ., 5.4, -2, ?, 0.9, -7%[15.4 µM]
COC(=O)c1ccc(CN2CCc3ccccc32)cc1
 : -1.3%, 1.0, 0, 2%, 1.5, 1%[15.4 µM]
O=S(=O)(c1ccc(NC2CCCc3ccccc32)nc1)N1CCOCC1 (configuration not stated)
 : 32µM*, 2.9, -12, 8%, -0.9, 2%
CC(=O)Oc1ccc(NC(=O)CCC2CCCCC2)c(C(=O)O)c1
 : 22µM*, 8.4, 16, ?, -0.3, -22%

Record cards, as listed above:
Cc1c(C(=O)N(CCc2ccccc2)Cc2ccccc2)cccc1[N+](=O)[O-] is listed as ClpP mod: -4.5%; Menin-MLL FL inh: -2.1; TRPML1 inh: 56; gsp antagonist: -22%; TRPML1 agonist: 5.6; gsp agonist: -8%
CC(=O)Oc1ccc(NC(=O)CCC2CCCCC2)c(C(=O)O)c1 is listed as ClpP mod: 22µM*; Menin-MLL FL inh: 8.4; TRPML1 inh: 16; gsp antagonist: ?; TRPML1 agonist: -0.3; gsp agonist: -22%

Remaining list, next part:
Second line of a record – ClpP mod, Menin-MLL FL inh, TRPML1 inh, gsp antagonist, TRPML1 agonist, gsp agonist
COc1ccc(NC(=O)c2sc(SC)nc2N)cc1
 : -0.1%, -0.6, 9, 3%, -0.3, -50%[inhibitor]
CO/N=C(/C)CCS(=O)(=O)c1ccccc1
 : ., 0.4, -16, 7%, -0.5, -12%
C=CCn1c(-c2csc(-c3ccc(OC)c(OC)c3)n2)n[nH]c1=S
 : ., -0.4, 18, -10%, 4.0, 26%[15.4 µM]
CCN1C(=O)CSc2ccc(C(=O)NCc3ccco3)cc21
 : -2.3%, 0.9, -4, 1%, 0.1, 2%
N#Cc1c(N)nc2c(c1-c1ccc(F)cc1)c(=O)nc1sccn12
 : -1.2%, 6.5, -3, -20%, -0.2, 12%[15.4 µM]
CSc1ccc(S(=O)(=O)NCC(=O)OCC(=O)NCCc2ccccc2)cc1[N+](=O)[O-]
 : -2.2%, ., -7, -4%, 0.6, 13%[15.4 µM]
COc1ccc(C(=O)NNC(=O)Cn2nnc(-c3ccc(OC)c(OC)c3)n2)cc1
 : 1.3%, 0.0, 8, 44%[activator], -0.2, 8%
Cc1cccc(C2=NN(c3ccc(Br)cc3)[C@@H](C(=O)N3CCOC3=O)[C@@H]2C)c1
 : 3.7%, 4.5, 43, -25%, 1.1, .
Cc1ccc(Nc2ccc([N+](=O)[O-])ccc2=O)cc1
 : ., ., 16, 4%, 1.0, 5%[15.4 µM]
CCC(C(=O)NCc1ccco1)n1nc(C)n2c(cc3occc32)c1=O (configuration not stated)
 : -3.7%, -0.3, -7, -1%, -0.7, -3%
Cc1cc(NC(=O)c2cc(-c3ccc4c(c3)OCO4)on2)n(-c2ccccc2)n1
 : -1.1%, -1.5, -1, 1%, 0.4, -9%
Cc1nn(-c2ccccc2)c(=S)c2ccccc12
 : -1.0%, 1.0, -17, 16%, 0.0, ?
Nc1ccc[n+](CC(=O)c2ccccc2)c1
 : -11%, -1.2, ?, 13%, -0.6, -16%
Fc1ccc(NC(=S)NC23CN4CN(CN(C4)C2)C3)cc1
 : -1.2%, -2.7, 16, 15%, 3.4, -34%[inhibitor]
COCCn1c(CCC(=O)O)ccc1-c1cccs1
 : ., 1.6, 11, -4%, 2.6, -2%
CCNC(=O)NC(=O)CSc1nnc(-c2c[nH]c3ccccc23)o1
 : ., 2.7, -5, 1%, 2.5, -13%
COc1ccc(/C=N/OC/C(O)=C(\C#N)c2nc3ccccc3[nH]2)cc1
 : -0.5%, -0.6, 5, 10%, 0.1, -45%[inhibitor]
COc1cc(OC)c(C(=O)O/N=C(\N)c2ccc(C)cc2)cc1OC
 : ., 0.6, 14, -10%, -1.2, 12%[15.4 µM]
Cc1ccc(C)c(C(=O)Nc2ccncc2)c1
 : 158%, 1.2, 4, 0%, -0.1, 1%[15.4 µM]
Cc1ccc(C(=O)c2cn(Cc3cccc(C)c3)c3nc(C)ccc3c2=O)cc1
 : 3.6%, ., 1, ., -0.4, .
Cc1ccc(-n2c(-c3ccco3)nc3c(cnn3-c3ccccc3Cl)c2=O)cc1
 : 60%, ., -3, ., -0.5, .
Cc1ccc(CNC(=O)CNC(=O)c2ccc(Br)o2)cc1
 : 1.2%, ., -6, 13%, -0.5, 5%
CCc1ccc(OCC(=O)NC(NC(=S)Nc2ccc(Cl)cc2)C(Cl)(Cl)Cl)cc1 (configuration not stated)
 : -16%, 9.7, 15, -6%, 1.6, 15%
CC(=O)c1ccccc1OCCCN1CCCCC1
 : -6.6%, 2.9, 3, 17%, -0.8, -10%
COc1ccnc(N=CNOCc2ccc(Cl)cc2)c1C#N
 : ., -0.6, -3, 7%, 0.8, 20%[15.4 µM]
Cc1cc2ccccc2n1CCNC(=O)c1ccc(Br)o1
 : -11%, ?, -5, -2%, 2.1, ?
Cc1ccccc1CNC(=O)CN1C(=O)CSc2ccc(S(=O)(=O)N(C)C)cc21
 : -1.0%, ., 37, ., -1.1, .
O=c1oc2ccccc2nc1/C=C(\O)c1ccc(Br)cc1
 : -2.9%, 18, -18, 7%, 0.6, -51%[inhibitor]
O=C(CSc1ncccc1C(=O)O)c1ccccc1F
 : ., -3.0, 9, 3%, 0.3, -25%
COc1cc(NC(=O)CSc2nc3nc(C)c(Cc4ccccc4)c(C)n3n2)cc(OC)c1
 : ?, ., 14, ., 0.0, .
Cc1ccc(NC(=O)OCC(F)(F)C(F)F)cc1NC(=O)OCC(F)(F)C(F)F
 : 0.2%, 1.5, 5, 1%, 1.9, -6%
Cc1cc(=O)oc2cc(OCC(=O)NCc3cccnc3)ccc12
 : 25µM*, 4.9, 5, 6%, 1.5, -10%
COC(=O)[C@H](CCSC)NC(=O)[C@@H](Cc1cnc[nH]1)NC(=O)OCc1ccccc1
 : ., -2.1, 7, 7%, 0.9, 6%
C=CCOc1cccc(CNn2nnnc2N)c1
 : ., -0.4, -8, 13%, -0.4, -22%[15.4 µM]
CCOc1ccc2nc(NC(NC(=O)CC)(C(=O)OC)C(F)(F)F)sc2c1 (configuration not stated)
 : 2.0%, 1.7, -2, 10%, 1.1, -30%
CCOC(=O)C1CCN(CCC(=O)Nc2cccc(C)c2)CC1
 : ., 4.4, -6, 2%, -0.1, -10%[15.4 µM]
Cc1ccc(Nc2ncnc3c2nc2n3CCCC2)cc1F
 : -2.6%, ., 28, ., 1.9, .
O=C(COc1coc(CN2CCN(c3ccccc3)CC2)cc1=O)Nc1cccc(F)c1
 : 1.1%, ., 10, -5%, 1.6, 1%[15.4 µM]
O=C(NCCCN1CCOCC1)c1ccc(CS(=O)(=O)Cc2ccccc2Cl)o1
 : -0.2%, -1.5, 9, -5%, 0.2, 4%
CC1(C(=O)NS(=O)(=O)c2ccc(C#N)cc2)CCN1C(=O)Cc1ccc(Cl)cc1Cl (configuration not stated)
 : -0.8%, ., 64, ., -0.6, .
O=C(CSc1ncnc2sc(-c3ccccc3)cc12)NC1CCS(=O)(=O)C1 (configuration not stated)
 : ., -1.2, 2, -9%, 0.0, 17%
CCC1CC(C(=O)Nc2ccccc2)C(=O)O1 (configuration not stated)
 : ., ., 14, 1%, 0.4, 9%
O=C(OCc1cc(=O)n2nc(-c3cccs3)sc2n1)c1cccc(Cl)c1
 : -13%, ., -10, ., -0.6, .
CN1CCN(c2ccncc2S(=O)(=O)N2CCCC2)CC1
 : -0.8%, ., 1, ., -0.2, ?
Cc1ccc(S(=O)(=O)NCCC(=O)NNC(=O)c2ccccc2Cl)cc1C
 : 0.6%, ., 5, 10%, -0.4, -28%
O=C(Cn1cnc2sc3c(c2c1=O)CCCC3)NCC(=O)Nc1ccc(F)cc1F
 : ., ., -15, -7%, -0.1, 15%
C(=Nc1ccc(Nc2ccccc2)cc1)c1ccc2ccccc2c1
 : 14µM*, 4.1, -7, -15%, 2.2, 12%
O=Cc1cnc2ccccc2c1-c1ccccc1
 : ., 4.6, 1, 22%, -0.4, 2%
C=CCOc1ccc2c(c1)C(=NO)c1cc(OCC=C)ccc1-2
 : 1.0%, 3.6, -9, -1%, 4.4, -13%
COc1ccccc1C(=O)N1CCN=C1c1ccccc1
 : -1.5%, 13, 6, -2%, -0.8, -9%

Remaining list, next part
Second line of a record – ClpP mod, Menin-MLL FL inh, TRPML1 inh, gsp antagonist, TRPML1 agonist, gsp agonist
CCOC(=O)CC1C(=O)NCCN1Cc1cccc(C(F)(F)F)c1 (configuration not stated)
 : 1.3%, 1.8, -7, 4%, -0.8, -4%
O=C(c1ccccc1NS(=O)(=O)c1ccccc1[N+](=O)[O-])N1CCCC1
 : -3.3%, ., -12, 4%, -0.3, 1%[15.4 µM]
Cc1ccc(CN2C(=O)N(c3ccc(C)c(Cl)c3)S(=O)(=O)c3ccccc32)cc1
 : -6.4%, ., 16, ., 0.4, .
CCNC(=O)COC(=O)c1cc(=O)[nH]c2ccccc12
 : -22%, 1.7, 50, 9%, -0.3, 4%
CC(=O)N1CCN(S(=O)(=O)c2cccc(C(=O)NNC(=O)COc3ccc(Cl)cc3C)c2)CC1
 : ., ., 17, 6%, -0.9, 0%[15.4 µM]
O=C(N/N=C/c1cc(Br)ccc1O)C(c1ccncc1)N1CCOCC1 (configuration not stated)
 : -13%, 4.6, -1, 17%, 0.1, 17%
Nc1nc2ccc(Br)cc2o1
 : ?, ., 1, 8%, -0.2, 4%
Cc1c(C(=O)OCC(=O)Nc2ccc(C(N)=O)cc2)cccc1[N+](=O)[O-]
 : 0.8%, -3.3, -2, -20%, 0.4, 13%
O=C(NNC(=S)Nc1ccc(Br)cc1)c1cccnc1
 : ., -0.2, -11, -4%, 0.3, -6%
CCOc1cc(/C=N/NC(=O)c2ccccn2)ccc1OC(=O)c1cccs1
 : -1.1%, -0.5, 0, -21%, 2.1, -10%[15.4 µM]
CC12CCCCN1CCCc1c2[nH]c2ccccc12 (configuration not stated)
 : -4.6%, ?, 0, 1%, 1.8, ?

Assay outcomes as filed in PubChem.
